Assay outcomes from PubChem.
CHT allo act – allosteric activators of human choline transporter CHT; Q9GZV3; CHT-expressing cells, membrane potential dye, choline EC20; hits give high values; LV-AA mutant CHT in HEK293 cells; B-score at 10 µM; actives 0.49% (n = 310,000); AID 488977;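 active = initial fluorescence not abnormally high and integrated response B-score, plate-corrected, over 3 SD above library mean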
Target sequence (Q9GZV3 whole entry, looked up): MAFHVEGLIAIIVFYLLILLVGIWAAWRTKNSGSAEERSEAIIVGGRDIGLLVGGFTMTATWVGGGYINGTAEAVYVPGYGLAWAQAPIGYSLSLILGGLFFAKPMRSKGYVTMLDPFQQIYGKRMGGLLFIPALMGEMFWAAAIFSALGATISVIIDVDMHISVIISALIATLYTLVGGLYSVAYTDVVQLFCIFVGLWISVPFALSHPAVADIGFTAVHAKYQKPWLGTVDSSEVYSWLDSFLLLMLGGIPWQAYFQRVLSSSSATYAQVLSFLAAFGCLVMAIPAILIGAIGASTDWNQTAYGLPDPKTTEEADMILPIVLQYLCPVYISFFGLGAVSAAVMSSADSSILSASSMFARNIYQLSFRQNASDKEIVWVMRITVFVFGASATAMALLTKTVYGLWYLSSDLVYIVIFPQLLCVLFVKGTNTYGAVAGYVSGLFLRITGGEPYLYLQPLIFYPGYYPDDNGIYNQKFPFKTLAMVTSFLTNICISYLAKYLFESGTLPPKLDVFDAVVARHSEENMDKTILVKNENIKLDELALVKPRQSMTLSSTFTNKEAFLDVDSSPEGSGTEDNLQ
Calls only. Some of the compounds tested, and most or all hits are left out here.

How did CC(C(=O)N1CCN(Cc2ccc3c(c2)OCO3)CC1)n1cc([N+](=O)[O-])cn1 (stereo not drawn) do in these assays?
CHT allo act: inactive

What do the screens show for `CC(Oc1cc2oc(=O)c3c(c2cc1Cl)CCCC3)C(=O)NCc1ccncc1` (stereo not drawn)?
CHT allo act: inactive

Results for CS(=O)(=O)N1CCC(C(=O)Nc2cc(Cl)ccc2Cl)CC1 ?
CHT allo act: inactive

What do the screens show for `COc1ccc2nc(SCC(=O)Nc3ccc4sc(C)nc4c3)c(C#N)cc2c1`?
CHT allo act: inactive

What do the screens show for `Cc1cccc(C)c1NC(=O)CSc1ccc([N+](=O)[O-])cn1`?
CHT allo act: inactive

Results for CC(=O)c1nc(N2C(=O)CC(Cc3cc(C)cc(C)c3)C2=O)sc1C (stereo not drawn) ?
CHT allo act: inactive

Results for C=CCn1c(=N)n(CC(=O)c2ccc(OC)cc2)c2ccccc21 ?
CHT allo act: inactive

How did CCc1nc(SCC(=O)Nc2cccc(C(F)(F)F)c2)c2c(=O)n(C)c(=O)n(C)c2n1 do in these assays?
CHT allo act: inactive

What do the screens show for `O=C(Nc1ccc2c(c1)OCO2)c1c(F)cccc1F`?
CHT allo act: inactive

How did Cc1c(C(=O)N2CCOCC2)oc2ccc(S(=O)(=O)N3CCCC3)cc12 do in these assays?
CHT allo act: inactive

Results for N#Cc1c(NC(=O)c2ccc(Cn3cc(Br)cn3)o2)sc2c1CCCCCC2 ?
CHT allo act: inactive

How did Cc1[nH]n2c(=O)cc(Cc3ccccc3)nc2c1C#N do in these assays?
CHT allo act: inactive

Results for Cc1cccc(NC(=O)CSCC(=O)Nc2cc(Cl)ccc2N2CCOCC2)c1 ?
CHT allo act: inactive

What do the screens show for `COc1ccc(CCNc2c(C=O)c(=O)[nH]c3ccccc23)cc1OC`?
CHT allo act: inactive

How did CCCC(=O)Nc1ccc(C(=O)N/N=C/c2cccnc2)cc1 do in these assays?
CHT allo act: inactive

How did COc1cc(OC)cc(C(=O)Nc2ccc(NC(=O)c3ccco3)c(C)c2)c1 do in these assays?
CHT allo act: inactive

How did CN=C(NC#N)NCCSCc1nc[nH]c1C do in these assays?
CHT allo act: inactive

Results for COc1ccc(NC2c3ncccc3C(=O)N2Cc2cccs2)cc1 (stereo not drawn) ?
CHT allo act: inactive

What do the screens show for `O=C(Nc1ccccc1)C1=C[C@H](C2CCCCC2)C[C@H](OCc2ccc(CO)cc2)O1`?
CHT allo act: inactive

How did O=C(Cc1cccs1)NC(Cc1c[nH]c2ccccc12)C(=O)O (stereo not drawn) do in these assays?
CHT allo act: inactive

How did Cc1cccc(-n2ncc3c(N4CC(C)CC(C)C4)ncnc32)c1 (stereo not drawn) do in these assays?
CHT allo act: inactive

How did CSC1=NCCN1C(=O)c1ccc(S(=O)(=O)N(C)C)cc1 do in these assays?
CHT allo act: inactive

What do the screens show for `CC(C)(C)n1nnnc1C(c1cccs1)N1CCN(c2ccccc2)CC1` (stereo not drawn)?
CHT allo act: inactive

What do the screens show for `CCOC(=O)c1ccc(Nc2cc(C)nc3nc(C)nn23)cc1`?
CHT allo act: inactive

How did O=C(CCCn1c(SCC(=O)NCCc2ccccc2)nc2ccccc2c1=O)NCC1CCCO1 (stereo not drawn) do in these assays?
CHT allo act: inactive

What do the screens show for `CSc1nc(NCCOCCO)c2sc3nc(-c4ccco4)c4c(c3c2n1)CCC4`?
CHT allo act: inactive

Results for O=C(O)c1cccc2c1C(=O)N(CC1CCCO1)C2 (stereo not drawn) ?
CHT allo act: inactive

Results for CC(NC(=O)COC(=O)C1=COCCO1)C12CC3CC(CC(C3)C1)C2 (stereo not drawn) ?
CHT allo act: inactive

How did CC(C)CCn1c(S(=O)(=O)O)nc2ccccc21 do in these assays?
CHT allo act: inactive

How did COc1cccc(-c2cc(C(=O)N3CCN(c4ccccc4OC)CC3)no2)c1 do in these assays?
CHT allo act: inactive

A stretch from further up, for reference:
How did CC(C)CCn1c(S(=O)(=O)O)nc2ccccc21 do in these assays?
CHT allo act: inactive

How did COc1cccc(-c2cc(C(=O)N3CCN(c4ccccc4OC)CC3)no2)c1 do in these assays?
CHT allo act: inactive

The list goes on.
Results for O=C(O)CCn1cc(/C=C2\SC(=S)NC2=O)c(-c2ccccc2)n1 ?
CHT allo act: inactive

Results for CCN(c1ccccc1)S(=O)(=O)c1ccc(Cl)c(NC(=O)CSc2nncs2)c1 ?
CHT allo act: inactive

Results for Cc1cccc(C)c1N(CC(=O)N1CCN(c2ccccc2F)CC1)S(C)(=O)=O ?
CHT allo act: inactive

How did Cc1cc(NC(=O)CSCC(=O)N(C)Cc2ccc(Cl)cc2Cl)no1 do in these assays?
CHT allo act: inactive

How did O=C(CSc1nc2ccccc2c2c1CCCC2)N1CCOCC1 do in these assays?
CHT allo act: inactive

Results for Cc1ccccc1OCC(=O)NNC(=O)CCN1C(=O)c2ccccc2C1=O ?
CHT allo act: inactive

How did O=C(CSc1ncnc2c1sc1ccccc12)Nc1ccc(Br)cc1 do in these assays?
CHT allo act: inactive

What do the screens show for `O=C(c1ccc(Cl)cc1)c1ccc(OCC(O)CN2CCOCC2)cc1` (stereo not drawn)?
CHT allo act: inactive

How did Cc1nnsc1S(=O)(=O)Cc1ccccc1Cl do in these assays?
CHT allo act: inactive

Results for Cc1cc(C)c(NC(=O)Nc2ccccc2C)c(Cl)c1 ?
CHT allo act: inactive

How did Cc1onc(-c2ccccc2Cl)c1C(=O)NC(=S)Nc1ccc(C(C)(C)C)cc1 do in these assays?
CHT allo act: inactive

How did COc1ccccc1-c1c(C(F)(F)F)oc2cc(OC(=O)c3ccccc3[N+](=O)[O-])ccc2c1=O do in these assays?
CHT allo act: inactive

Results for Cc1cc(C)n2nc(SCN3C(=O)c4ccccc4C3=O)nc2n1 ?
CHT allo act: inactive

How did CC(=O)c1ccc2c(c1)Cc1cc(C(C)=O)ccc1-2 do in these assays?
CHT allo act: inactive

Results for CCN(CCO)C(=S)Nc1cc(C(=O)OC)ccc1C(=O)OC ?
CHT allo act: inactive

What do the screens show for `OCC1(Cc2cccc(Cl)c2)CCCN(Cc2sc(N3CCCC3)nc2Cl)C1` (stereo not drawn)?
CHT allo act: inactive

What do the screens show for `COc1ccc(C2(C)NC(=O)N(CC(=O)Nc3ccc(Br)c(C)c3)C2=O)cc1OC` (stereo not drawn)?
CHT allo act: inactive

How did COCCn1c(-c2ccccc2)nc(=S)c2c1CC(C)(C)OC2 do in these assays?
CHT allo act: inactive

What do the screens show for `CCOc1ccccc1-n1c(CNc2ccc(F)cc2)nnc1SCC(=O)NCc1ccco1`?
CHT allo act: inactive

How did Cc1ccc(-n2nc3c(=O)n(CCCC(=O)NCc4cccc(F)c4)nc(C)c3c2C)cc1 do in these assays?
CHT allo act: inactive

Results for O=C(CN1CCN(C(=O)c2c(F)cccc2F)CC1)Nc1ccccc1F ?
CHT allo act: inactive

How did COc1ccc(Cl)cc1N/C(N)=N/c1nc(C)cc(C)n1 do in these assays?
CHT allo act: inactive

How did N#CCCN(C(=O)CO/N=C/c1cccc([N+](=O)[O-])c1)c1ccccc1 do in these assays?
CHT allo act: inactive

Results for CC1CCCN(C(=O)COc2ccc(NC(=O)c3cccs3)cc2)C1 (stereo not drawn) ?
CHT allo act: inactive

How did Cc1ccc(CCP(=O)(O)CN2CCOCC2)cn1 do in these assays?
CHT allo act: inactive

Results for COc1ccc(C2SCCN2C(=S)Nc2cccc(Cl)c2)cc1 (stereo not drawn) ?
CHT allo act: inactive

How did CCOC(=O)C1CCN(C(=O)c2ccccc2NS(=O)(=O)c2ccccc2)CC1 do in these assays?
CHT allo act: inactive

How did CC(C)c1nnc(NC(=O)c2ccc(N3C(=O)CCC3=O)cc2)s1 do in these assays?
CHT allo act: inactive

How did O=C(Nc1cccc(-c2ccc(N3CCCCC3)nn2)c1)c1ccco1 do in these assays?
CHT allo act: inactive

What do the screens show for `COc1cccc(NC(=O)CSc2nnc(COc3ccc4c(c3)CCCC4)o2)c1`?
CHT allo act: inactive

Results for COc1cc(CSc2nc(-c3ccccc3)cc(=O)[nH]2)cc(OC)c1 ?
CHT allo act: inactive

How did Clc1ccc(/C=N/Nc2nc(Cl)nc3ccccc23)cc1 do in these assays?
CHT allo act: inactive

Results for CC(=O)N1CCc2cc(Br)cc(S(=O)(=O)NCCCN3CCCC(C)C3)c21 (stereo not drawn) ?
CHT allo act: inactive

What do the screens show for `C#CCOCCOCCOCCNc1nc(N2CCN(C(=O)CCCCCCCCCCNC(=O)[C@@H](CCSC)n3cc(CCO)nn3)CC2)nc(N2CCN(C(=O)CCCCCCCCCCNC(=O)[C@H](CCSC)n3cc(CCO)nn3)CC2)n1`?
CHT allo act: inactive

Results for CCOC(=O)c1c(C)nc2sc(C(=O)Nc3ccc(C(C)=O)cc3)c(N)c2c1-c1ccc(OC)cc1 ?
CHT allo act: inactive

How did CCOC(=O)C1=C2SCCN2C(=O)C(C#N)C1(C)C (stereo not drawn) do in these assays?
CHT allo act: inactive

How did Cc1ccc(/C=C2/SC(=O)N(CC(=O)N3CCOCC3)C2=O)s1 do in these assays?
CHT allo act: inactive

What do the screens show for `COc1cc(C2(O)CCCCC2C)cc(OC)c1OC` (stereo not drawn)?
CHT allo act: inactive

How did O=C(Nc1ccc2ncccc2c1)c1ccccc1 do in these assays?
CHT allo act: inactive

Results for COC(=O)/C(C#N)=C/c1c(-c2ccccc2)nc2n1CCS2 ?
CHT allo act: inactive

Results for CN(C)/C=C1\NC(=S)N(c2ccccc2)C1=O ?
CHT allo act: inactive

Results for CCOc1nnc(C)c2c(C)n(-c3cccc(Cl)c3)nc12 ?
CHT allo act: inactive

How did O=C(Nc1ccc2oc(-c3cccc(F)c3)nc2c1)c1ccccc1F do in these assays?
CHT allo act: inactive

What do the screens show for `Cc1cc(C)cc(NC(N)=S)c1`?
CHT allo act: inactive

How did COc1cc(NC(=O)[C@@H](NC(=O)c2ccco2)C(C)C)c(OC)cc1NC(=O)c1ccccc1 do in these assays?
CHT allo act: inactive

What do the screens show for `NC(=O)CC(NC(=O)c1cccc(Br)c1)c1ccc(N2CCC(N3CCCC3)CC2)c([N+](=O)[O-])c1` (stereo not drawn)?
CHT allo act: inactive

Results for Cn1c(N)c(C(=O)COC(=O)CN2C(=O)c3ccccc3C2=O)c(=O)n(C)c1=O ?
CHT allo act: inactive

How did CCCN(CC(=O)Nc1ccccc1OC)C(=O)C1CCCC1 do in these assays?
CHT allo act: inactive

What do the screens show for `CCC(C)NCCCCOc1ccc(Cl)cc1C` (stereo not drawn)?
CHT allo act: inactive

What do the screens show for `CSc1ccccc1OCc1cc(C(=O)N(C)Cc2ccc(C)o2)no1`?
CHT allo act: inactive

What do the screens show for `CCCc1nnc(SCC(=O)N2CCOCC2)n1Cc1ccco1`?
CHT allo act: inactive

How did CC(C)NCc1nnc(-c2ccccc2Cl)o1 do in these assays?
CHT allo act: inactive

Results for CS(=O)(=O)N1CCC(Oc2ccccc2C(=O)N2CCC[C@H]2CO)CC1 ?
CHT allo act: inactive

Results for O=C(CNC(=S)NC(=O)c1ccco1)c1ccccc1 ?
CHT allo act: inactive

How did COc1ccc(OC)c(C(=O)c2ccc(C(=O)Nc3ccccc3)cc2)c1 do in these assays?
CHT allo act: inactive

Results for O=C(O)CN1CCN(Cc2ccccc2Cl)C1=O ?
CHT allo act: inactive

How did COc1ccc(C)cc1S(=O)(=O)N1CCC(C)CC1 do in these assays?
CHT allo act: inactive

What do the screens show for `CCO[C@@H]1OC(C(=O)N2CCOCC2)=C[C@H](C2CCCCC2)[C@H]1CCCO`?
CHT allo act: inactive

How did O=C(COc1ccc(-c2ccccc2)cc1)N1CCN(C(=O)c2cccnc2)CC1 do in these assays?
CHT allo act: inactive

What do the screens show for `CCOc1cccc(N(C(=O)CCC(=O)Nc2cc(C)on2)C(C(=O)NC(C)(C)C)c2ccc(OC)cc2)c1` (stereo not drawn)?
CHT allo act: inactive

How did CCOc1ccccc1C(=O)N(Cc1ccccc1)Cc1cc2cc3c(cc2[nH]c1=O)OCCO3 do in these assays?
CHT allo act: inactive

Results for CSc1c(SCc2ccccc2)cnn(Cc2ccccc2)c1=O ?
CHT allo act: inactive

How did O=C(Nc1ccc(S(=O)(=O)NC2=NCCCCC2)cc1)c1ccc([N+](=O)[O-])s1 do in these assays?
CHT allo act: inactive

How did CCOC(=O)N1CCN(C(=O)CSc2nnc(-c3cccs3)o2)CC1 do in these assays?
CHT allo act: inactive

How did O=C(NCC(c1ccco1)N1CCN(c2ccccc2F)CC1)OCc1ccccc1 (stereo not drawn) do in these assays?
CHT allo act: inactive

What do the screens show for `O=C(c1ccoc1)N1CCCC(CO)(CCCc2ccccc2)C1` (stereo not drawn)?
CHT allo act: inactive

How did Cc1c(C)c2ccc(OCC(=O)Nc3cccnc3)cc2oc1=O do in these assays?
CHT allo act: inactive

What do the screens show for `COc1ccccc1C(=O)NNC(=O)c1ccc(NS(=O)(=O)c2cccs2)cc1`?
CHT allo act: inactive

How did CCOC(=O)C1(C(=O)O)NC(=O)CC1c1ccccc1 (stereo not drawn) do in these assays?
CHT allo act: inactive

Of the compounds above, these have a thiophene ring, fused or not.
Results for N#Cc1c(NC(=O)c2ccc(Cn3cc(Br)cn3)o2)sc2c1CCCCCC2 ?
CHT allo act: inactive

Results for COc1ccc(NC2c3ncccc3C(=O)N2Cc2cccs2)cc1 (stereo not drawn) ?
CHT allo act: inactive

How did O=C(Cc1cccs1)NC(Cc1c[nH]c2ccccc12)C(=O)O (stereo not drawn) do in these assays?
CHT allo act: inactive

What do the screens show for `CC(C)(C)n1nnnc1C(c1cccs1)N1CCN(c2ccccc2)CC1` (stereo not drawn)?
CHT allo act: inactive

What do the screens show for `CSc1nc(NCCOCCO)c2sc3nc(-c4ccco4)c4c(c3c2n1)CCC4`?
CHT allo act: inactive

How did O=C(CSc1ncnc2c1sc1ccccc12)Nc1ccc(Br)cc1 do in these assays?
CHT allo act: inactive

Results for CC1CCCN(C(=O)COc2ccc(NC(=O)c3cccs3)cc2)C1 (stereo not drawn) ?
CHT allo act: inactive

Results for CCOC(=O)c1c(C)nc2sc(C(=O)Nc3ccc(C(C)=O)cc3)c(N)c2c1-c1ccc(OC)cc1 ?
CHT allo act: inactive

How did Cc1ccc(/C=C2/SC(=O)N(CC(=O)N3CCOCC3)C2=O)s1 do in these assays?
CHT allo act: inactive

How did O=C(Nc1ccc(S(=O)(=O)NC2=NCCCCC2)cc1)c1ccc([N+](=O)[O-])s1 do in these assays?
CHT allo act: inactive

How did CCOC(=O)N1CCN(C(=O)CSc2nnc(-c3cccs3)o2)CC1 do in these assays?
CHT allo act: inactive

What do the screens show for `COc1ccccc1C(=O)NNC(=O)c1ccc(NS(=O)(=O)c2cccs2)cc1`?
CHT allo act: inactive
